Bioassay records (PubChem)
GIV-Gai inh: blocks GIV peptide binding to rat Galpha-i3 | P08753 | Galpha-i3/FITC-GIV peptide fluorescence polarization, 90 min; hits give low values; scaled: aluminum fluoride 0%, vehicle 100% | percent of control (FP), % (no concentration beside the values) | 0.42% of 210,000 active;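 active means replicate mean at 85% of control or lower, very high polarization wells dropped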;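 further: wells of about 15 µL received 100 nL stock; the first replicate is given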
Target sequence (P08753 whole entry, looked up): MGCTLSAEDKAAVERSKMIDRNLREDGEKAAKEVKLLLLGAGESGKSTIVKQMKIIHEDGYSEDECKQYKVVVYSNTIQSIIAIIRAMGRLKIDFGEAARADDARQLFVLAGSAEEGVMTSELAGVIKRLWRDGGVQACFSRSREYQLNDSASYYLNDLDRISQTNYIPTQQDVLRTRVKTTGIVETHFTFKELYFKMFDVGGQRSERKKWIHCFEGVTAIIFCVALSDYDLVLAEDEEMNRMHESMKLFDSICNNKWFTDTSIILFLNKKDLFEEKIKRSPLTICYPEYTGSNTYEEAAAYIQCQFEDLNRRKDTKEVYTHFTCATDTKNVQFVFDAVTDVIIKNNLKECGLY
Sa growth 42C: S. aureus growth inhibition | 0.53% of 170,000 active | relative growth, % (no concentration beside the values) | S. aureus RN4220 growth, OD600, 20 h, 42 °C; hits give low values;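 active means growth at 42 °C up to 50% and 20 or more points under that at 30 °C, or under 10% at both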;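 further: 300 nL library stock went into each well; scaled to the means of positive and negative controls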
HCMV UL50-53 inh: inhibitors of HCMV UL50-UL53 nuclear egress complex interaction; HTRF UL50-UL53 interaction, normalized percent inhibition; inhibition, % (no concentration beside the values); 0.15% of 190,000 active; AID 1918969;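 active means both replicates at 50% or more, plus weaker picks with an unusually low signal ratio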;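 further: stock transfer was 100 nL into about 20 µL; 0% = negative control wells and 100% = wells with untagged competitor protein; inactives centre near -12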
Sa growth 42C second temp: second read-out of Sa growth 42C, no call of its own (marks repeat the call); relative growth, %; measured here: growth at 30 °C;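 optical density after 20 h as mean of two plates; 100% = untreated growth and lower means inhibition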
An asterisk follows results filed as active.

`Fc1cc(F)cc(-c2nnc3ccc(Cl)nn23)c1` gave GIV-Gai inh 104 and HCMV UL50-53 inh -45.
`CCC(C)c1ccccc1NC(=O)C1CSC2(C)CCC(=O)N12` (stereo not given) gave Sa growth 42C 84, HCMV UL50-53 inh -28 and Sa growth 42C second temp 90.
Screening CCN(CC)C(=O)c1sc2[nH]c(=O)n(-c3ccccc3)c(=O)c2c1C returned GIV-Gai inh 104, Sa growth 42C 126, HCMV UL50-53 inh 0 and Sa growth 42C second temp 93.
`O=C(NCCN1CCOCC1)c1cc(-c2ccco2)on1` gave GIV-Gai inh 93, Sa growth 42C 94, HCMV UL50-53 inh -12 and Sa growth 42C second temp 92.
For COc1ccc(CSc2nc(N)c3c4c(sc3n2)CCCC4)cc1 the results were GIV-Gai inh 104 and HCMV UL50-53 inh -16.
Screening CCOc1ccccc1CN1C(=O)c2ccccc2C1C(=O)NCCCN1C(C)CCCC1C (stereo not given) returned GIV-Gai inh 106, Sa growth 42C 127 and Sa growth 42C second temp 85.
CCn1c(SCC(=O)O)nc2cc(Cl)c(Cl)cc21 was read as GIV-Gai inh 105, Sa growth 42C 106, HCMV UL50-53 inh 2 and Sa growth 42C second temp 66.
CS(=O)(=O)c1ccc(Cl)c(C(=O)O)c1 was read as Sa growth 42C 92, HCMV UL50-53 inh 11 and Sa growth 42C second temp 97.
Screening Cc1c(NC(=O)c2ccc(Cl)cc2)c(-n2cnnc2)nn1C returned GIV-Gai inh 98 and HCMV UL50-53 inh -7.
`NC(=O)c1c(NC(=O)c2nc(SCc3ccccc3F)ncc2Cl)sc2c1CCCC2` gave GIV-Gai inh 100, Sa growth 42C 109, HCMV UL50-53 inh -6 and Sa growth 42C second temp 91.

Pulled by compound from the list above (4):
For COc1ccc(CSc2nc(N)c3c4c(sc3n2)CCCC4)cc1 the results were GIV-Gai inh 104 and HCMV UL50-53 inh -16.
`Fc1cc(F)cc(-c2nnc3ccc(Cl)nn23)c1` gave GIV-Gai inh 104 and HCMV UL50-53 inh -45.
`O=C(NCCN1CCOCC1)c1cc(-c2ccco2)on1` gave GIV-Gai inh 93, Sa growth 42C 94, HCMV UL50-53 inh -12 and Sa growth 42C second temp 92.
`NC(=O)c1c(NC(=O)c2nc(SCc3ccccc3F)ncc2Cl)sc2c1CCCC2` gave GIV-Gai inh 100, Sa growth 42C 109, HCMV UL50-53 inh -6 and Sa growth 42C second temp 91.

(continued)
For COc1ccc(N(CC(=O)NCCc2ccccc2)S(=O)(=O)c2ccccc2)c(OC)c1 the results were GIV-Gai inh 108, Sa growth 42C 119, HCMV UL50-53 inh -5 and Sa growth 42C second temp 89.
For CCNC(=O)c1cnc2sc(N3CCCCCC3)nn2c1=O the results were GIV-Gai inh 100, Sa growth 42C 100 and Sa growth 42C second temp 88.
Screening COC(=O)c1ccccc1NC(=O)c1cn2c3c(ccc(Cl)c3c1=O)OC(C)C2 (stereo not given) returned GIV-Gai inh 102, Sa growth 42C 93 and Sa growth 42C second temp 91.
Screening CCOc1ccc(-c2cc(C(=O)NCCc3ccc(Cl)cc3)c3ccccc3n2)cc1 returned GIV-Gai inh 100, Sa growth 42C 103 and Sa growth 42C second temp 82.
Cc1ccsc1C(=O)Nc1sc2c(c1C#N)CCCC2 was read as Sa growth 42C 74, HCMV UL50-53 inh -2 and Sa growth 42C second temp 71.
For CN(C)C(CNC(=O)c1cc(=O)c2cc(Br)ccc2o1)c1ccc(C(C)(C)C)cc1 (stereo not given) the results were GIV-Gai inh 109 and HCMV UL50-53 inh -45.
`COc1ccc(/C=N\N2CCN(c3ccccc3)CC2)cc1` gave GIV-Gai inh 108, Sa growth 42C 93, HCMV UL50-53 inh -4 and Sa growth 42C second temp 93.
Screening CC(C)C(N)C(=O)N1CCc2ccccc21 (stereo not given) returned GIV-Gai inh 106 and HCMV UL50-53 inh -4.
For N=C1/C(=C\c2cccn2-c2ccc3ccccc3c2)C(=O)N=C2SC=NN12 the results were GIV-Gai inh 158, Sa growth 42C 50 and Sa growth 42C second temp 13.
Screening CC1CN(C)C(C)CC1NCCc1ccccc1 (stereo not given) returned GIV-Gai inh 103, Sa growth 42C 104, HCMV UL50-53 inh -27 and Sa growth 42C second temp 95.
Screening COc1ccccc1C1CC(c2c(-c3ccccc3)c3cc(Cl)ccc3[nH]c2=O)=NN1C(=O)CCC(=O)O (stereo not given) returned GIV-Gai inh 100 and HCMV UL50-53 inh 7.
Screening CCOc1ccc(C(=O)/C=C2/NCCNC2=O)cc1 returned GIV-Gai inh 95, Sa growth 42C 98 and Sa growth 42C second temp 97.
O=C1CCCN1c1ccc(CN2CC(=O)N(Cc3ccccc3F)c3ccccc3S2(=O)=O)cc1 was read as GIV-Gai inh 103 and HCMV UL50-53 inh -31.
`CCC(C)N[C@H]1CS(=O)(=O)C[C@@H]1S(=O)(=O)c1ccc(F)c(C)c1` (stereo not given in full) gave GIV-Gai inh 103 and HCMV UL50-53 inh -11.
For COc1cc(C=Nc2cc(C)ccc2NC(C)=O)cc(OC)c1OC the results were GIV-Gai inh 111, Sa growth 42C 94 and Sa growth 42C second temp 95.
For CC(C)(C)S(=O)(=O)c1ccsc1 the results were GIV-Gai inh 113, Sa growth 42C 102, HCMV UL50-53 inh 3 and Sa growth 42C second temp 88.
For O=C(NCc1ccccc1Cl)C(=O)NCC(c1ccc2c(c1)OCO2)N1CCOCC1 (stereo not given) the results were GIV-Gai inh 96, Sa growth 42C 109 and Sa growth 42C second temp 81.
Screening CN(CC(=O)C1=C(c2ccc(Br)cc2)C(=O)c2ccccc2C1=O)c1ccccc1 returned GIV-Gai inh 104, Sa growth 42C 111 and Sa growth 42C second temp 90.
O=C(CN1C(=O)NC(c2ccccc2)(c2ccccc2)C1=O)c1ccc[nH]1 was read as Sa growth 42C 97, HCMV UL50-53 inh -7 and Sa growth 42C second temp 84.
`N#CSc1ccc(N)c(Br)c1` gave Sa growth 42C 27, HCMV UL50-53 inh -16 and Sa growth 42C second temp 29.
For COCCNC(=O)c1cc(-c2cccnc2)nc2ccc(S(=O)(=O)N3CCCCCC3)cc12 the results were GIV-Gai inh 107, Sa growth 42C 97, HCMV UL50-53 inh -24 and Sa growth 42C second temp 88.
Cc1ccc(C(=O)Nc2ccc3c(c2)CCC(=O)N3)cc1 was read as GIV-Gai inh 101 and HCMV UL50-53 inh -26.
O=S(=O)(c1ccc(-c2noc(-c3ccc(Br)cc3)n2)cc1)N1CCOCC1 was read as GIV-Gai inh 106 and HCMV UL50-53 inh -17.
O=c1/c(=C\c2ccc(F)cc2)sc2n1CCN=2 was read as Sa growth 42C 91, HCMV UL50-53 inh 0 and Sa growth 42C second temp 86.
COc1ccc(S(=O)(=O)N2CCC(Oc3ccc(-n4cnnn4)cc3)CC2)cc1 was read as GIV-Gai inh 99, Sa growth 42C 104, HCMV UL50-53 inh -8 and Sa growth 42C second temp 93.
Screening COc1ccc(OC)c(NC(=O)N2CC3CCCN3c3ccccc32)c1 (stereo not given) returned GIV-Gai inh 104, Sa growth 42C 90 and Sa growth 42C second temp 87.
Screening O=S(=O)(c1ccccc1)c1ccc(N2CCCCC2)cc1 returned GIV-Gai inh 93, Sa growth 42C 98, HCMV UL50-53 inh 3 and Sa growth 42C second temp 91.
For Cc1nn2c(=O)cc(COc3ccc(C)c(C)c3)nc2s1 the results were GIV-Gai inh 111 and HCMV UL50-53 inh 11.
O=C(c1cccs1)N1CCN(C(=O)c2cccs2)CC1 was read as GIV-Gai inh 106, Sa growth 42C 112, HCMV UL50-53 inh -5 and Sa growth 42C second temp 109.
Screening CC(C)c1nc2ccc(C(=O)Nc3ccccc3F)cc2o1 returned GIV-Gai inh 102, Sa growth 42C 69 and Sa growth 42C second temp 88.
For O=C(CCN1C(=O)c2ccccc2C1=O)NCc1ccccc1 the results were Sa growth 42C 87, HCMV UL50-53 inh -35 and Sa growth 42C second temp 88.
For O=C1NCCN1CCN1C(=O)c2ccccc2NC1c1ccccc1 (stereo not given) the results were GIV-Gai inh 99, Sa growth 42C 106, HCMV UL50-53 inh 13 and Sa growth 42C second temp 94.
`Brc1cccc(-c2ccc(SCc3nc(-c4ccc5c(c4)OCO5)no3)nn2)c1` gave GIV-Gai inh 110 and HCMV UL50-53 inh -10.
For Nc1nc2ccc(C(=O)O)cc2s1 the results were GIV-Gai inh 111, Sa growth 42C 101, HCMV UL50-53 inh -8 and Sa growth 42C second temp 95.
Screening CS(=O)(=O)Nc1cc(C(=O)O)ccc1N1CCCC(CN2CCCC2)C1 (stereo not given) returned GIV-Gai inh 99 and HCMV UL50-53 inh -16.
For O=C1CC(SCc2nc3ccccc3[nH]2)C(=O)N1c1ccc(F)cc1 (stereo not given) the results were GIV-Gai inh 106, Sa growth 42C 98, HCMV UL50-53 inh -6 and Sa growth 42C second temp 50.
Screening O=C(Cn1cnc2onc(-c3ccc(F)cc3)c2c1=O)N1CCN(c2ccc(F)cc2)CC1 returned GIV-Gai inh 105, Sa growth 42C 105 and Sa growth 42C second temp 93.
COc1cccc(Cn2c(C)c(C3=CCN(S(=O)(=O)c4c(C)nn(C)c4C)CC3)c3ccccc32)c1 was read as GIV-Gai inh 117 and HCMV UL50-53 inh -30.
Screening O=S(=O)(NC1Cc2ccccc2C1N1CCCC(C(F)(F)F)C1)c1ccccc1 (stereo not given) returned Sa growth 42C 96, HCMV UL50-53 inh -24 and Sa growth 42C second temp 84.
For O=C(NC1CCCCCCC1)c1cc(-c2ccc(Cl)cc2)n[nH]1 the results were GIV-Gai inh 102, Sa growth 42C 85 and Sa growth 42C second temp 90.
Screening COc1ccc2cc(CCNS(=O)(=O)c3ccccc3)c(=O)[nH]c2c1 returned GIV-Gai inh 102, Sa growth 42C 90, HCMV UL50-53 inh -26 and Sa growth 42C second temp 76.
For COc1ccc(-c2cc(N)n(CCC#N)n2)c(OC)c1 the results were GIV-Gai inh 106, Sa growth 42C 96, HCMV UL50-53 inh -12 and Sa growth 42C second temp 91.
CC1=C(C(=O)OCc2ccc3c(c2)OCO3)C(c2ccc([N+](=O)[O-])cc2)NC(=O)N1 (stereo not given) was read as GIV-Gai inh 99 and HCMV UL50-53 inh -12.
`Cc1ccc(-n2nnc(C(=O)Nc3cc(F)ccc3F)c2C)cc1F` gave GIV-Gai inh 108, Sa growth 42C 107, HCMV UL50-53 inh -2 and Sa growth 42C second temp 86.
Screening Cc1nnsc1C(=O)NC1CCCCC1 returned GIV-Gai inh 99 and HCMV UL50-53 inh -4.
Screening Cc1cc(C)c2c(c1)C(Cc1ccc(C(C)C)cc1)C(=O)N2 (stereo not given) returned GIV-Gai inh 104 and HCMV UL50-53 inh -12.
`Cc1nc2sc(C)c(C)n2c(=O)c1S(=O)(=O)N1CCN(c2ccccc2F)CC1` gave GIV-Gai inh 101, Sa growth 42C 99 and Sa growth 42C second temp 81.
Screening CC1Cn2cc(C(=O)N3CCN(Cc4ccc5c(c4)OCO5)CC3)c(=O)c3c(Cl)ccc(c32)O1 (stereo not given) returned GIV-Gai inh 111, Sa growth 42C 101, HCMV UL50-53 inh -12 and Sa growth 42C second temp 86.
O=C(c1ccccc1)N1CCC(C2CCNCC2)CC1 was read as GIV-Gai inh 106, Sa growth 42C 79, HCMV UL50-53 inh 2 and Sa growth 42C second temp 85.
Screening C=CCN1C(=O)S/C(=C\c2ccc(CC)s2)C1=O returned GIV-Gai inh 110, Sa growth 42C 106, HCMV UL50-53 inh -28 and Sa growth 42C second temp 98.
`CC(=O)Nc1cccc(Oc2nnc(-c3ccc(C)cc3)c3ccccc23)c1` gave GIV-Gai inh 95 and HCMV UL50-53 inh -23.
For O=C(Nc1ccc(S(=O)(=O)Nc2cnc3ccccc3n2)cc1)c1ccc2c(c1)OCO2 the results were GIV-Gai inh 105, Sa growth 42C 45, HCMV UL50-53 inh -19 and Sa growth 42C second temp 41.
Cc1ccc2occ(CC(=O)Nc3ccc(S(=O)(=O)N4CCC(C)CC4)cc3)c2c1 was read as GIV-Gai inh 107, Sa growth 42C 103, HCMV UL50-53 inh -9 and Sa growth 42C second temp 97.
For COc1ccc(NC(=O)Cn2ccc3ccccc3c2=O)cc1OC the results were GIV-Gai inh 107, Sa growth 42C 91 and Sa growth 42C second temp 85.
CC(=NCc1ccc(C#N)cc1)c1ccccc1O was read as GIV-Gai inh 104, Sa growth 42C 108, HCMV UL50-53 inh -9 and Sa growth 42C second temp 94.
`O=C(c1cc(Cl)nc2ccccc12)N1CCc2ccccc2C1` gave Sa growth 42C 111, HCMV UL50-53 inh -26 and Sa growth 42C second temp 88.
CC1CCN(S(=O)(=O)c2ccc3c(c2)c(=O)c(C(=O)NCc2ccc(Cl)cc2)cn3C)CC1 was read as GIV-Gai inh 99, Sa growth 42C 97, HCMV UL50-53 inh -10 and Sa growth 42C second temp 92.
Cc1nn(-c2cccc(C(=O)O)c2)c(=O)c2ccccc12 was read as GIV-Gai inh 100, Sa growth 42C 92, HCMV UL50-53 inh 0 and Sa growth 42C second temp 83.
Screening O=C(CN1C(=O)C(c2ccc(F)cc2)=NC12CCCCCC2)Nc1ccccc1Cl returned GIV-Gai inh 107, Sa growth 42C 98, HCMV UL50-53 inh -1 and Sa growth 42C second temp 74.
Screening OC12CC3CC(CC(C3)C1)C2 returned Sa growth 42C 105, HCMV UL50-53 inh 8 and Sa growth 42C second temp 95.
`Cc1nc2ccccc2n1CC(=O)OC(C)C(=O)NC1CCCC(C)C1C` (stereo not given) gave Sa growth 42C 75, HCMV UL50-53 inh -30 and Sa growth 42C second temp 93.
